Source: PubChem
EPAC1 ag val: Validation qHTS for agonist of cAMP-regulated guanine nucleotide exchange factor 3 (EPAC1) | EPAC1 Rap1b BODIPY-GDP exchange, fluorescence | Potency, µM, inactives show max response, positive = active, actives largely listed as activators | 16,000 compounds, 1% hits | AID 1645883, 2021; active means well fitted activation curve with a large enough effect;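 further: nearly all actives have a fitted effect of over 70% in size; series mostly up to about 76 or 150 µM; scaled to a cAMP control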
* = called active by the depositor. On the % scale 0 is the no-effect control and ±100 the full control effect; potency means the concentration at half of the fitted maximal effect.

SMILES | EPAC1 ag val
CCC1C(=O)OC[C@H]1Cc1cncn1C (some centres undefined) | 14%

Not all compounds are listed (hit frequency here may not be typical).
